VDR inhibitor = inhibitors of human vitamin D receptor. P11473. 0.93% of 400,000 active. AID 504847. Potency, µM, for inactives: max response, negative = inhibition, usual class: inhibitors. VDR-SRC2-3 peptide fluorescence polarization, 2 h; active = well fitted inhibition curve with a large enough effect; inconclusive = small, poorly fitted or top-dose-only effect, or another doubt; inactive = no such curve, though single readings can be large or run the other way; also: series mostly up to about 120 µM
Target sequence (P11473 whole entry, looked up): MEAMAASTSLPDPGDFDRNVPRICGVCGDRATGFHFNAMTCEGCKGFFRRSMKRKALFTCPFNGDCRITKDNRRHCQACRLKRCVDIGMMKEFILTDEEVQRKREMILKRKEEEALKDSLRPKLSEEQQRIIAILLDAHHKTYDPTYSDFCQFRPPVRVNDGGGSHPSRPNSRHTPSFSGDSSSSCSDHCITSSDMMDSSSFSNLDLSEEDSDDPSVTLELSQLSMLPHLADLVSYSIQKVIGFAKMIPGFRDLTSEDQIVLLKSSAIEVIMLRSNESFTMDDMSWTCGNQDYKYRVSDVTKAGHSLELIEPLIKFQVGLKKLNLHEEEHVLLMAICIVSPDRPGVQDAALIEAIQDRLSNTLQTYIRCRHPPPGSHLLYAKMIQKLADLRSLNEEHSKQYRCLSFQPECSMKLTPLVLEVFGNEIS
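Signal is fluorescence polarization, reporting how far test compounds block the interaction of VDR with the SRC2-3 coregulator peptide after a 2 h room-temperature incubation.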
* marks the source's active call; other numbers are inactive results; ? = inconclusive. % is scaled to controls: 0 for no effect and ±100 for the full control effect; potency is read from the fitted curve at half-maximal effect.

VDR inhibitor | structure
-8.1% | CCC1=NN2C(=N)/C(=C/c3cc(C)n(-c4ccccc4)c3C)C(=O)N=C2S1
0.7% | CC(NC(=O)c1ccc2nc(CCc3ccccc3)oc2c1)c1ccccc1 (centres undefined)
-10.1% | Cc1ccc(C(=O)Nc2cccc3ncccc23)cc1[N+](=O)[O-]
9.9% | O=C1CCCC2=C1C(c1ccsc1)CC(=O)N2c1ccccc1 (centres undefined)
23.8% | CCc1cc2c(cc3c(=O)n(CC(=O)N4CCN(c5cc(Cl)ccc5C)CC4)nc(CC)n32)s1
9.7% | CC(Nc1ccc2ccccc2c1)C(=O)N/N=C/c1ccncc1 (centres undefined)
-21.1% | COc1ccccc1NC(=O)c1sc2nc(-c3ccco3)ccc2c1N
-6.3% | Cc1cc(C)cc(OCC(=O)Nc2cc(C)on2)c1
-12.5% | Cc1ccc(NC(=O)COC(=O)CNC(=O)c2ccc(C)s2)cc1
-5.8% | CCOC(=O)c1c(C)[nH]c(C)c1C(=O)CSc1nc2ccccc2[nH]1
-0.5% | CCOC(=O)C1CCN(C(=O)c2ccc3c(c2)C(=O)N(c2ccccc2C)C3=O)CC1
8.9% | CC(C)COC(=O)C1C2C=CC3(CN(C4CCCC4)C(=O)C13)O2 (centres undefined)
-5.0% | O=C(Nc1ccc([N+](=O)[O-])cc1)C1CC1(c1ccccc1)c1ccccc1 (centres undefined)
? | CCCn1c(=NC(C)=O)c(C(=O)OCC)cc2c(=O)n3ccccc3nc21
0.5% | Cc1cc(C)c(S(=O)(=O)N2CCN(C(=O)C(C)Cn3nc(C)nc3C)CC2)c(C)c1 (centres undefined)
-7.0% | COc1cccc(S(=O)(=O)NCc2ccc3c(c2)OCO3)c1
-1.3% | O=[N+]([O-])c1ccc(OCc2nnc(-c3ccccc3)o2)cc1
-23.5% | Cn1cnnc1SCC(=O)Nc1ccc(S(N)(=O)=O)cc1
-5.6% | O=C(c1ccc(Br)cc1)N(Cc1cccs1)c1ccc(F)cc1
5.5% | COc1ccc(NC(=O)N2CCCC3(CCN(C(=O)c4ccc(OC)cc4)CC3)C2)cc1
-9.7% | Cc1ccc(-n2c(SCC(=O)O)nc3sc4c(c3c2=O)CC(C)(C)SC4)cc1
10.8% | COc1cc(OC)c(/C=N/NC(=O)c2ccc(NC(C)=O)cc2)cc1Br
14.3% | CC(=O)c1cccc(NC(=S)N2CCN(CCN3C(=O)c4cccc5cccc(c45)C3=O)CC2)c1
-8.8% | CCOC(=O)C(CC(=O)O)N1CCCCC1 (centres undefined)
5.1% | CCOc1cc2[nH]c(=O)n(CCCCC(=O)N3CCN(c4cccc(Cl)c4)CC3)c(=O)c2cc1OCC
11.7% | CCN(CC)CCN(C(=O)/C=C/c1cccs1)c1nc2ccc(Cl)cc2s1
-8.3% | COC(CNC(=O)c1ccc(N2CCC3(CC2)OCCO3)c([N+](=O)[O-])c1)OC
-0.9% | O=C(NCc1cccnc1)c1nc(-c2cccs2)no1
4.7% | COc1ccc(C(=O)NCc2ccccc2OC)c(OC)c1
-0.2% | CCCCC(=O)Nc1cccc(-c2cn3ccccc3n2)c1

By substructure, the entries above with an NH in an aromatic ring.
VDR inhibitor | structure
-5.8% | CCOC(=O)c1c(C)[nH]c(C)c1C(=O)CSc1nc2ccccc2[nH]1
5.1% | CCOc1cc2[nH]c(=O)n(CCCCC(=O)N3CCN(c4cccc(Cl)c4)CC3)c(=O)c2cc1OCC

Continuation:
VDR inhibitor | structure
2.8% | Oc1cc(NCc2ccc(Cl)cc2)cc2cccnc12
1.5% | Cc1cc(NC(=O)c2cc(-c3ccco3)on2)nn1Cc1ccc(Cl)cc1
-1.7% | O=C(CSCCc1ccccn1)Nc1cccnc1Cl
3.8% | CCC(=O)c1cccc(-c2ccccc2)c1CC
2.3% | CC(C)CC(=O)NC(=S)Nc1nc(-c2ccc(Cl)cc2)cs1
0.7% | CCCC(=O)Nc1nc(C)c(C(C)=O)s1
-11.5% | COc1cccc(CC(=O)NC2CCCN(Cc3ccccc3F)C2)c1 (centres undefined)
-15.7% | Cc1ccccc1CC(=O)NCc1cccnc1
1.6% | CC1Cc2ccccc2N1C(=O)Cn1nc(C(=O)O)c2ccccc2c1=O (centres undefined)
3.1% | O=C(CCc1ccccc1)N=C1SC2CS(=O)(=O)CC2N1c1ccc(F)cc1 (centres undefined)
5.7% | Cc1cccc(NC(=O)c2ccc(F)c(S(=O)(=O)N(C)C3CCCCC3)c2)c1
-11.5% | COc1ccccc1CNC(=O)c1sccc1C
20.0% | CC(=O)Nc1ccc(NC(=O)CC2Nc3cccc4cccc(c34)NC2=O)cc1 (centres undefined)
8.9% | CC(C)N1CCN(Cc2cc(F)ccc2-n2cccn2)CC1CCO (centres undefined)
-0.7% | Cc1ccc(S(=O)(=O)NNC(=O)C2CCN(S(=O)(=O)c3ccc(C)cc3)CC2)cc1
14.5% | O=C(NO)c1ccccc1C(F)(F)F
10.0% | Cc1ccc(NC(=O)CCn2c(=S)oc3ccccc32)cc1
0.2% | COc1ccc(N(CC(=O)NCc2ccccc2OC)S(=O)(=O)c2ccc(C)cc2)cc1Cl
6.9% | CCc1nc(C)cn1S(=O)(=O)c1cc([N+](=O)[O-])ccc1Cl
1.0% | COc1ccc(Nc2cc(C)c3cc(NC(=O)c4ccccc4Cl)ccc3n2)cc1
-6.6% | COc1ccc2c(C)cc(=O)[nH]c2c1
1.5% | CN(C)CCN1C(=O)CCC2(C)C1=CCC1C2CCC2(C)C1CCC2(C)O (centres undefined)
20.5% | Cn1nc(C(F)(F)F)c2cc(C(=O)NC3CC3)sc21
-2.9% | CCc1cccc(C)c1NC(=O)CN(C)C1=NS(=O)(=O)c2ccccc21
20.7% | COc1cccc(C(=O)Nc2cc3c(cc2N2CCOCC2)n(C)c(=O)n3C)c1
11.9% | COc1cccc(CC2(CO)CCN(Cc3cccn3-c3cccnc3)CC2)c1
-3.9% | O=C(CCCN1C(=O)CCC1=O)Nc1ccc2c(c1)OCO2
-9.0% | COc1c(C)cccc1C(=O)Nc1ccc(N2CCOCC2)c(Cl)c1
-5.1% | Cc1cccc(C(C#N)c2nc3ccccc3nc2C(F)(F)F)c1 (centres undefined)
-8.4% | CCC(C(=O)OCC(=O)N(CCOC)c1c(N)n(Cc2ccccc2)c(=O)[nH]c1=O)c1ccccc1 (centres undefined)

Fetched by compound from above, four records:
VDR inhibitor | structure
5.7% | Cc1cccc(NC(=O)c2ccc(F)c(S(=O)(=O)N(C)C3CCCCC3)c2)c1
-15.7% | Cc1ccccc1CC(=O)NCc1cccnc1
-2.9% | CCc1cccc(C)c1NC(=O)CN(C)C1=NS(=O)(=O)c2ccccc21
11.9% | COc1cccc(CC2(CO)CCN(Cc3cccn3-c3cccnc3)CC2)c1

Other compounds follow:
VDR inhibitor | structure
9.0% | CN(Cc1cccnc1)Cc1cn(C)nc1-c1ccc(Oc2ccccc2)cc1
-6.6% | CN(CC(=O)Nc1ccc(F)cc1)C(=O)c1cc(-c2ccco2)nc2ccccc12
-6.4% | Cc1c(C=NNc2ccccc2)[nH]c(=O)[nH]c1=O
-9.4% | O=C(CC1CCCCC1)NCc1nc(-c2ccccc2)no1
5.6% | O=C(CNC(=O)Cc1ccccc1)N=Nc1c(O)[nH]c2ccccc12
-5.0% | CC(=O)c1ccc(OCC(=O)OCC(=O)N(CC(C)C)c2c(N)n(Cc3ccccc3)c(=O)[nH]c2=O)cc1
-0.9% | Cc1onc(-c2ccccc2)c1C(=O)Nc1cccc2nsnc12
1.9% | COC(=O)c1nn(-c2ccccc2)c(Sc2ccc(Cl)cc2)c1/C=N/O
16.6% | Brc1ccc2cccnc2c1
-6.9% | Nc1ccccc1C=C1Cc2ccccc2C1=O
-0.6% | Cc1cccc(NC(=O)C(=O)NNC(=O)c2ccc(C(C)(C)C)cc2)c1
11.6% | Cc1oc2ccc(O)c(CN3CCN(Cc4ccccc4)CC3)c2c1C(=O)Nc1cccc(Cl)c1C
-11.5% | CCCCn1c(N)c(N(CC(C)C)C(=O)c2ccc(COc3ccccc3)o2)c(=O)[nH]c1=O
2.9% | Cc1[nH]c2ccccc2c1C(=O)C(=O)N1CCN(c2ccccc2F)CC1
5.3% | CC(Oc1cccc(F)c1)C(=O)/C=C\N(C)C (centres undefined)
6.7% | C/C(=N\OC(=O)c1ccc(Cl)c(Cl)c1)c1sc(C)nc1C
-3.7% | Cc1ccccc1NC(=S)N(CCCN1CCCCC1)Cc1ccco1
-8.4% | CC(=O)N1c2ccccc2[C@H](C)[C@H]1C
-15.4% | CCOC(=O)c1nn(-c2ccc(OCC)cc2)c2nc(-c3cccc(OC)c3)c(C#N)c(=O)n12
-2.2% | N#Cc1cnc(NCc2ccc(Cl)cc2Cl)nc1
21.1% | COc1cc(/C=N/n2nnnc2N)cc(Cl)c1OC
-2.6% | C=CCSc1nc(C)c(Cc2cccc3ccccc23)c(=O)[nH]1
10.5% | Cc1c(C)n(Cc2ccccc2)c2ccc(C(=O)NCc3ccccc3F)cc12
0.2% | COc1ccc2[nH]cc(CCN=C(NC(=O)c3ccccc3F)Nc3nc(C)cc(C)n3)c2c1
-3.5% | O=C(Nc1ccc([N+](=O)[O-])cc1)c1cccc(S(=O)(=O)Nc2ccccn2)c1
-8.7% | COc1ccc(S(=O)(=O)N2CCCCCC2)cc1NC(=O)CCCOc1ccccc1
-21.0% | COc1ccc(CCc2nc(-c3cccs3)no2)cc1
-17.4% | C/C(=N\NC(=O)C1CC1)c1cccnc1
1.2% | COCC(C)N1CCC(n2nccc2NC(=O)CCCc2ccccc2)CC1 (centres undefined)
8.2% | Cc1noc(C)c1C(=O)Nc1nc(C23CC4CC(CC(C4)C2)C3)cs1

Reformatted: four of the compounds above
> COc1cc(/C=N/n2nnnc2N)cc(Cl)c1OC
- VDR inhibitor = 21.1%

> C=CCSc1nc(C)c(Cc2cccc3ccccc23)c(=O)[nH]1
- VDR inhibitor = -2.6%

> Cc1c(C)n(Cc2ccccc2)c2ccc(C(=O)NCc3ccccc3F)cc12
- VDR inhibitor = 10.5%

> COc1ccc2[nH]cc(CCN=C(NC(=O)c3ccccc3F)Nc3nc(C)cc(C)n3)c2c1
- VDR inhibitor = 0.2%

The list goes on.
VDR inhibitor | structure
-2.6% | CCN(CC)CCCNC(=O)c1cn(C)c2ccc(S(=O)(=O)N3CCOCC3)cc2c1=O
11.8% | Cn1nnnc1SCC(=O)Nc1ccc(Cl)cn1
9.1% | Cc1cc2oc(=O)cc(CN3CCCCC3C)c2cc1C (centres undefined)
-8.1% | Cc1cc(C)cc(NC(=O)Cn2c(=O)n(-c3ccc(C)c(C)c3)c(=O)c3oc4ccccc4c32)c1
-0.1% | O=C(CCC1N=C2c3ccccc3N=C(SCC(=O)NCC3CCCO3)N2C1=O)NCc1ccc(F)cc1 (centres undefined)
1.2% | NC(=O)CC(NC(=O)c1cccc(Br)c1)c1ccc(NC2CCC2)c([N+](=O)[O-])c1 (centres undefined)
-12.8% | Cc1ccc(CCNC(=O)Cn2c(-c3cccs3)cc3cc(F)ccc32)cc1
1.1% | Cc1c(C)c2c(OCC(=O)N3CCC(C(=O)O)CC3)cc3c(c2oc1=O)CCC(C)(C)O3
4.5% | O=C(NCc1ccncc1)c1ccc(S(=O)(=O)Nc2ccccc2)cc1
15.4% | COC(=O)C1=C(C)N(Cc2ccccc2)C(=NCCc2c[nH]c3ccccc23)N[C@H]1c1ccccc1
0.0% | Cc1cccc(N2C(=O)CN=C2Nc2nc(C)cc(C)n2)c1
-8.2% | NS(=O)(=O)c1ccc(CNC(=O)/C=C/c2ccccc2[N+](=O)[O-])cc1
-11.2% | Cc1ccc(NC(=O)c2sc3nc(N)c(C#N)cc3c2N)cc1
-6.2% | CCn1c(SCC(=O)NCC2CCCO2)nc2c(c1=O)SC(C)C2 (centres undefined)
7.0% | CC1(C(=O)NC2CCCCCC2)CCC(=O)N1Cc1ccc2c(c1)OCO2 (centres undefined)
13.9% | Cc1ccc2[nH]cc(CCNC(=O)c3cccnc3)c2c1
-9.0% | CSc1nc2c(c(=O)[nH]c(=O)n2C)n1Cc1ccccc1
-1.9% | Cc1ccc(-n2nnnc2SCC(=O)c2c(N)n(CC(C)C)c(=O)n(C)c2=O)cc1
-9.8% | CC(C(=O)c1ccc(-c2ccccc2)cc1)[n+]1cccc(Br)c1 (centres undefined)
-14.7% | CC(=O)Nc1cccc2c1C(=O)N(c1ccccc1C)C2=O
-2.1% | O=C(NCC(c1ccco1)S(=O)(=O)c1cccs1)c1ccc(Cl)cc1 (centres undefined)
6.9% | O=C1C(=O)N(CNc2ccccn2)c2ccccc21
25.1µM* | O=C(Cc1cccs1)NC1C(=O)N2C(C(=O)[O-])=C(C[n+]3ccccc3)CSC12 (centres undefined)
-4.7% | O=C(COc1cccc2ccccc12)NNC(=O)c1cnccn1
2.8% | Cn1c(=O)n(Cc2ccccc2)c(=O)c2c1nc1n2CCN1c1ccccc1
-4.4% | CN1CC(c2ccc(C#N)cc2)C2(COc3ccccc3C2=O)C12C(=O)Nc1ccccc12 (centres undefined)
-12.6% | Cc1ccccc1OCc1n[nH]c(=S)n1Cc1ccccc1
0.8% | Cc1ccc(C(=O)NC(C)c2ccc(S(N)(=O)=O)cc2)s1 (centres undefined)
18.4% | COc1ccccc1N(C(C)=O)c1nc(C)cc(C)c1C#N
-8.1% | N#Cc1c(/N=C/c2cccs2)sc2c1CCC2
-6.2% | C#CCNc1ccc([N+](=O)[O-])cc1

Some of these compounds in order of number of heavy atoms, rising.
VDR inhibitor | structure
-1.7% | O=C(CSCCc1ccccn1)Nc1cccnc1Cl
-5.8% | CCOC(=O)c1c(C)[nH]c(C)c1C(=O)CSc1nc2ccccc2[nH]1
5.5% | COc1ccc(NC(=O)N2CCCC3(CCN(C(=O)c4ccc(OC)cc4)CC3)C2)cc1

High-throughput results from PubChem.

Not all compounds are listed (hit frequency here may not be typical).
